miR-21 FLuc = miR-21 reporter, rising signal; HeLa miR-21 FLuc reporter, luciferase, 48 h; Potency, µM (top dose mostly 38.3 µM), for the others: at the highest dose reporter change, positive = more light; 340,000 tested, under 10 active; AID 2288; active = well fitted rising curve with a large enough effect; inconclusive = small, poorly fitted or top-dose-only effect; inactive = no such curve, though single readings can be large or run the other way;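 also: % of control where 0% means no effect; miR-21 action dims this reporter so a rising signal means less miR-21 action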
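HeLa cells endogenously expressing miR-21, stably carrying CMV-driven firefly luciferase with a downstream miR-21 binding site, 2000 cells/well. Titrations up to approximately 40 uM, 48 hours; luciferase luminescence read.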
Rango dissoc inh = prevents RanGTP from dissociating the Rango-importin beta complex; AID 540253; O95149+P62826; Potency, µM (highest dose often 46.1 µM), inactives show at the top dose activity change, negative = inhibition; 0.071% of 340,000 active; Biochemical FRET Rango-importin beta, RanGTP-induced dissociation; active means falling FRET ratio curve, often poorly fitted, with flat reads before Ran was added; inconclusive means other falling curves, or compound fluorescence or quenching; inactive means flat or rising ratio curve;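 also: potency is read from the fitted curve at half-maximal effect; % of control where 0% means no effect; nearly all actives have a fitted effect of over 45% in size; -100% = wells without RanGTP and RCC1; the record marks most hits as doubtful in a second field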
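Rango FRET biosensor (snurportin-1 IBB flanked by N-terminal EYFP and C-terminal CFP10) at 0.1 uM, with 0.25 uM importin beta in PBS, 1mM DTT, 0.02% Tween-20, 0.1% BSA. 0.6 uM Ran, 2mM GTP and 0.2 uM RCC1 were then added for 45 min at room temperature. Inhibition read as loss of FRET rise.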
Rango complex inh = prevents formation of the Rango-importin beta complex; Rango CFP/YFP FRET sensor + importin beta, 45 min; 0.031% of 340,000 active; Potency, µM (top dose mostly 92.2 µM), inactives show at the top dose inhibition of complex formation; active = rising FRET ratio curve, often small or poorly fitted; inconclusive = mostly compound fluorescence or quenching in the first reads; inactive = flat curves in all reads;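 also: potency is read from the fitted curve at half-maximal effect; 0% = DMSO wells and 100% = buffer wells lacking importin beta; nearly all actives have a fitted effect of over 15% in size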
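FRET biosensor (snurportin 1 IBB flanked by EYFP and cerulean), 50 nM, with compound 5 min, then 0.125 microM importin beta in PBS, 1 mM DTT, 0.02% Tween-20, 0.1% BSA. CFP/YFP ratio read after 45 min at room temperature; pre-read flags interference.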
GLA inh pH 4.5 = alpha-galactosidase A (human) inhibition, pH 4.5; AID 1467; 230,000 tested, under 10 active; activity change, negative = inhibition, % at 105 µM; P06280; purified enzyme, 4-MU-alpha-Gal fluorescence, pH 4.5; inconclusive = small, poorly fitted or top-dose-only inhibition, or a rising curve; inactive = flat fitted curve, though single readings scatter; no compound was filed as active;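 also: 0% = full activity with enzyme and -100% = basal without enzyme; dose as in the result columns while the protocol names 77 µM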
Target sequence (P06280 whole entry, looked up): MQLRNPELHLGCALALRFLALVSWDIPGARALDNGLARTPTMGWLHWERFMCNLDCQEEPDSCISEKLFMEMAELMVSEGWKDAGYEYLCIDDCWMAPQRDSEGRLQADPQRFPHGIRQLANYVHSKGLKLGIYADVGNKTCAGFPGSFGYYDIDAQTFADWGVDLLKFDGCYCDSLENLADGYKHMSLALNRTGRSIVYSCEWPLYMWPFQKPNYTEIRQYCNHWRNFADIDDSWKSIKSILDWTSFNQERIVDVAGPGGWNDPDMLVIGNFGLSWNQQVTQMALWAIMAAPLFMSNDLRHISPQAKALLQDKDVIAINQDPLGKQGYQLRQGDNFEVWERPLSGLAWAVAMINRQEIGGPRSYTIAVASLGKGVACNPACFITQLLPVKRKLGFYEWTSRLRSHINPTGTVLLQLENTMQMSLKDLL
Active calls of the source: *; ? = inconclusive; · = not tested or not shown; & = joins results of further samples; [ ] = remark or other dose.

SMILES | miR-21 FLuc | Rango dissoc inh | Rango complex inh | GLA inh pH 4.5
CC(=O)Nc1cccc(S(N)(=O)=O)c1C | -1% | -11% | -1.9% | 11
CCn1c(COc2cccc3cccnc23)nnc1SCC(=O)O | -2% | -7% | -0.4% | -12
CC1CCN(c2ccccc2NC(=S)NC(=O)c2ccc(-c3cccc([N+](=O)[O-])c3)o2)CC1 | -8% | 16% | 3.8% | 5
COc1cc(/C=C(\C#N)c2nc(-c3cc4ccccc4oc3=O)cs2)ccc1O | -5% | 8% | 0.2% | 6
Cc1ccc(C)c(OCc2cc(C(=O)N(C)Cc3nccs3)no2)c1 | -41% | -7% | 5.2% | ·
CCC(C)(C)C(=O)Nc1ccc(OC)cc1[N+](=O)[O-] | -7% | 1% | -0.5% | 0
Cc1ccc(S(=O)(=O)N2CCOCC2)cc1NC(=O)CN(C)C1CCS(=O)(=O)C1 (centres undefined) | -1% | 1% | 2.8% | 9
Nc1nc(CSC(=S)N2CCN(c3ccccc3)CC2)nc(Nc2ccccc2)n1 | 3% | -17% | 1.6% | 7
Cc1cccc(NC(=S)N2CCC(c3nc4ccccc4o3)CC2)c1 | 0% | -8% | -0.7% | 7
CCOC(=O)NC(=O)CSc1nnnn1-c1ccc(C)cc1 | -4% | -1% | -3.9% | 6
CCC(=O)c1ccccc1OCCN1CCN(Cc2ccccc2)CC1 | -2% | 2% | 1.3% | -4
COc1ccc(-c2cc(C(=O)N3CCOCC3)no2)cc1OC | -43% | -22% | 3.9% | -4
CC(C)CCNC(=O)c1ccc2c(c1)ncn2C1CCCC1 | -37% | 1% | 4.7% | 2[21.1 µM]
CCCCN(CC)CCNC(=O)c1cn(CCOC)c(=O)c2c1c1ccccc1n2C | 0%&-5% | -3% | -0.8% | ·
COc1ccccc1/C=C1/C(=O)N(c2ccccc2)N=C1C | 1% | 0% | 0.8% | ·
Cc1cccc(OCCn2c(=S)[nH]c3ccccc32)c1 | -6% | -16% | -1.7% | 0
C[C@@H]1NC(=O)OC1c1ccco1 (some centres undefined) | · | -29% | 5.3% | ·
CCOC(=O)CSc1nc2c(c(=O)[nH]1)C(C)(CC)Cc1ccccc1-2 (centres undefined) | 23% | -4% | -0.5% | ·
COC(=O)c1cccc(Oc2nc3c(c(=O)n(C)c(=O)n3C)n2C(C)C)c1 | -11% | 8% | -0.4% | -11
O=C1CN(CC(=O)Nc2ccc(SC(F)F)cc2)CCN1 | -11% | 13% | -0.6% | 7
Cc1cccc(OCC(=O)N/N=C/CC(C)c2ccccc2)c1C (centres undefined) | -6% | -8% | 3.2% | 4
CCOP(=O)(OCC)C(NC(=O)Nc1cccc(Cl)c1)C(N)=O (centres undefined) | -1% | 40% | 0.3% | -15
COc1cccc(NC(=O)CSc2nnc(-c3ccoc3C)n2-c2ccccc2)c1 | 6% | 2% | -0.6% | -2
O=C1CSC2(CCCCC2)N1CCO | -8% | -8% | -3.2% | 2
COC(=O)CN(c1ccc(OC)cc1)S(=O)(=O)c1c(C)noc1C | -8% | -1% | -3.3% | -1
COC(=O)c1ccc(NC2=CC(=O)CC(C)(C)C2)cc1 | -21% | -6% | -4.1% | 2
COc1ccc2nc(N3CCN(C(=O)C4COc5ccccc5O4)CC3)sc2c1 (centres undefined) | · | 3% | 6.3% | ·
C=C(C)COc1ccc2c(CC)cc(=O)oc2c1 | -45% | 14% | 0.3% | 3
Cc1ccoc1C(=O)Nc1ccc2ccccc2c1 | -26% | 2% | -1.5% | ·
O=C(C1=C[C@@H](c2ccc(Br)cc2)C[C@@H](OCCCCO)O1)N1CCN(Cc2ccc3c(c2)OCO3)CC1 | 17% | -7% | -1.1% | -29

The last 6 entries of the part above are carried over, then new ones follow.
SMILES | miR-21 FLuc | Rango dissoc inh | Rango complex inh | GLA inh pH 4.5
COC(=O)CN(c1ccc(OC)cc1)S(=O)(=O)c1c(C)noc1C | -8% | -1% | -3.3% | -1
COC(=O)c1ccc(NC2=CC(=O)CC(C)(C)C2)cc1 | -21% | -6% | -4.1% | 2
COc1ccc2nc(N3CCN(C(=O)C4COc5ccccc5O4)CC3)sc2c1 (centres undefined) | · | 3% | 6.3% | ·
C=C(C)COc1ccc2c(CC)cc(=O)oc2c1 | -45% | 14% | 0.3% | 3
Cc1ccoc1C(=O)Nc1ccc2ccccc2c1 | -26% | 2% | -1.5% | ·
O=C(C1=C[C@@H](c2ccc(Br)cc2)C[C@@H](OCCCCO)O1)N1CCN(Cc2ccc3c(c2)OCO3)CC1 | 17% | -7% | -1.1% | -29
COc1cccc(/C=C2\SC(=O)N(CCC(=O)NC3CCS(=O)(=O)C3)C2=O)c1 (centres undefined) | -19% | 0% | -1.6% | ·
COc1ccccc1CN1CCCC(C(=O)N2CCCCC2)C1 (centres undefined) | 0% | 1% | 0.3% | -2
CCOC(=O)C1[C@H]2C(=O)N(C(C)c3ccc(OC)cc3)C[C@]23C=C[C@H]1O3 (some centres undefined) | -3% | -10% | -3.5% | -12
COc1ccc(CCNC(=O)C(=O)Nc2ccc3nc4n(c(=O)c3c2)CCCCC4)cc1OC | -9% | 5% | -1.8% | -1
N#CC/C(N)=N/Nc1nc2ccccc2nc1Cc1ccccc1 | 1% | -11% | -5.2% | ·
CCOc1ccc(CCNC(=O)CSC(=S)N2CCCC2)cc1OCC | · | 0% | -0.8% | ·
CCn1nccc1C(=O)Nc1ccc(S(=O)(=O)NC23CC4CC(CC(C4)C2)C3)cc1 | 28% | 1% | 0.3% | 1
O=C(CSc1nnnn1-c1ccc(F)cc1F)Nc1ccccc1F | -5% | 10% | -3.3% | ·
CCOC(=O)c1[nH]c(COC(=O)CCCOc2ccccc2)c(C(=O)OCC)c1C | -5% | -21% | -1.9% | -4
CCCO/N=C1/C(=O)N(c2ccccc2)c2ccccc21 | -17% | 13% | 3.8% | -8
Cn1c(C(=O)O)c(S(=O)(=O)c2ccc(Cl)cc2)c2ccccc21 | 3% | 10% | -1.5% | ·
NS(=O)(=O)c1ccc(NC(=O)CCCCCN2C(=O)c3ccccc3C2=O)cc1 | · | -11% | -1.1% | ·
NC(=O)NCCC1=CCCCC1 | -6% | 0% | 4.9% | 1
COc1cc(C(=O)NC(CCSC)C(=O)OCC(=O)NC(=O)C2CCCCC2)cc(OC)c1OC (centres undefined) | -2% | -7% | 2.4% | 2
COc1ccc(NC(=O)CN(c2ccccc2C)S(C)(=O)=O)c(OC)c1 | 2% | -12% | -6.5% | ·
CC(=O)NCCSc1ccc(S(=O)(=O)N2CCCC2)cn1 | · | -8% | 0.1% | ·
OC(c1ccccc1)(c1ccccc1)c1nccc2ccccc12 | · | 3% | 0.1% | ·
O=C(Cc1ccc(F)cc1)N/N=C/c1ccc(-c2ccc(Cl)c(C(=O)O)c2)o1 | -3% | -21% | -0.2% | -5
O=[N+]([O-])c1cccc(-c2cn3nc(-c4ccccc4)c(-c4ccccc4)nc3n2)c1 | -2% | ? | ? | -4
COc1ccccc1N1CN(S(=O)(=O)c2ccc(C)cc2)c2nc3ccccc3nc21 | · | 5% | ? | ·
O=C(COc1ccccc1-c1ccccc1)N/N=C/c1cccnc1 | 17% | 0% | 0.9% | 0[21.1 µM]
COc1cccc(N2C(=O)N(c3ccccc3Cl)C3CS(=O)(=O)CC32)c1 (centres undefined) | -1% | 28% | -5.5% | 8
CN(C(=O)c1cccc(NC(=O)Cc2ccc(NC(=O)C3CCN(C(=O)C4CCCC4)CC3)cc2)c1)C1CC1 | · | 16% | -7.3% | ·
CCCCOC(=O)c1ccc(NC(=O)CN2C(=O)NC3(CCCCCC3)C2=O)cc1 | · | 19% | 0.5% | ·
Cc1ccc(S(=O)(=O)Nc2ccccc2C=Nc2cccc(C)c2C)cc1 | ? | 7.3µM* | ? | 2
O=C(C1CCCCC1)N1CCCc2ccccc21 | -7% | 9% | -2.1% | 3
COc1ccccc1CNC(=O)[C@H](C)NC(=O)C1CCN(C(=O)[C@@H](N)C(C)C)CC1 | 0% | 5% | 0.5% | ·
O=C(Nc1ccc(N2CCCCC2)cc1)c1ccc([N+](=O)[O-])o1 | -48% | -1% | 0.3% | ·
CCOc1ccc(CCNC(=O)c2cnc(C)cn2)cc1OCC | -10% | 18% | -3.6% | ·
O=C1C2CCCN2C(c2ccccc2)N1c1ccc(F)cc1 (centres undefined) | -16% | 3% | -0.3% | 6
Cc1[nH]c2ccccc2c(=O)c1CN1CCCCC1 | -4% | -9% | -1.7% | -11
O=C(c1ccc(Cn2c(=O)[nH]c3ccccc3c2=O)cc1)N1CCN(c2ccccn2)CC1 | 1% | 8% | -3.5% | 9
c1ccc2[nH]c(SCc3cn4ccccc4n3)nc2c1 | -54% | 0% | 1.4% | 3
COc1ccc(NC(=O)Cc2c[nH]c3ccccc23)cc1S(=O)(=O)N1CCOCC1 | -8% | 26% | -1.0% | -11
CS(=O)(=O)N(CC(=O)N1CCN(Cc2ccccc2)CC1)c1ccc2c(c1)OCCO2 | 4% | -11% | 0.3% | -2
C=CCN(c1ccccc1)S(=O)(=O)c1cccc(C(=O)NCC(c2ccccc2OC)N2CCCC2)c1 (centres undefined) | · | 2% | 0.3% | ·
O=C(O)COc1ccc(NC(=O)c2ccc3c(c2)C(=O)N(C2CCCCC2)C3=O)cc1 | -6% | 0% | 0.5% | ·
CCCc1nc(NCC2CCCO2)c2nnn(Cc3ccccc3)c2n1 (centres undefined) | -2% | -4% | -3.0% | -6
Cc1cccc(NC(=S)NC(C)C(c2ccccc2)N2CCN(C)CC2)c1C (centres undefined) | 2% | 13% | 0.4% | -7
O=C(Nc1cnn(Cc2ccc(F)cc2)c1)c1cnccn1 | -21% | -9% | -3.6% | 7
C=C(CCC(=O)c1ccccc1)C(=O)c1ccccc1 | ? | 2% | 1.2% | -4
COc1ccc(NC(=O)N(C2CCCCC2)C(C)c2cccnc2)c(OC)c1 (centres undefined) | -2% | 1% | -1.1% | -3
NC(=O)CCNC(=O)c1ccc(Cl)cc1 | -1% | 4% | 7.2% | -1
Cc1ccc(Oc2nc(CN3CCOCC3)nc3sc4c(c23)CCC(C)C4)cc1C (centres undefined) | -5% | 6% | 0.5% | -13
O=C(CCC(=O)N1CCSc2ccccc21)Nc1ccc(F)cc1 | 5% | -16% | 5.0% | ·
COc1ccc(C2=NN(C(=O)CCC(=O)O)C(c3cccs3)C2)cc1OC (centres undefined) | -10% | 14% | 0.0% | -5
O=C(CCNC(=O)c1ccc(Cl)cc1)NC1CCCCCC1 | · | -2% | 0.3% | ·
Cc1ccc(S(=O)(=O)N2CCN(S(=O)(=O)c3ccc4c(c3)OCCO4)CC2)cc1 | -1% | 6% | 3.1% | -2
O=C(COC(=O)c1cccs1)NCC1CCCCC1 | 2% | 5% | 2.8% | 3
COCCN(C(=S)Nc1c(C)cc(C)cc1C)C(C)c1cccnc1 (centres undefined) | -13% | 7% | 1.3% | 0
Cc1ccc2nc(NC(=O)C3CCCN3C(=O)OC(C)(C)C)sc2c1 (centres undefined) | -5% | 2% | 2.1% | 4
CCC(C)c1c(O)nc(SCc2ccccc2)[nH]c1=O (centres undefined) | -8% | -11% | 0.4% | 14
CSCc1ccc(C(=O)NCCSc2ccc(Br)cc2)cc1 | -50% | 1% | 2.1% | ·
CC(=O)Nc1cccc(NC(=O)c2csc(C)c2)c1 | 5% | -2% | -1.5% | ·
CCc1ccc(-c2nc(CS(=O)CC(=O)NCCN3CCCCCC3)c(C)o2)cc1 (centres undefined) | -23% | -4% | 0.2% | ·
Cn1c(Cn2nnc3ccccc32)nnc1SCC(=O)Nc1nccs1 | -2% | 5% | 1.9% | -17
O=C(Nc1nnc(CC2=CCCCC2)s1)c1cccs1 | -41% | 0% | -1.1% | -4
COc1cc(S(=O)(=O)N2CCCCC2)ccc1NC(=O)Cc1ccccc1 | -3% | 23% | -3.4% | -4

Assay outcomes deposited in PubChem BioAssay by National Center for Advancing Translational Sciences (NCATS).

An excerpt (hit frequency here may not be typical).
